Bioassay records deposited in PubChem by Broad Institute.
Vaccinia stage – blocks a specific stage of Vaccinia orthopoxvirus infection; Vaccinia-infected cells, mCherry/Venus stage reporter fluorescence; hits give low values; some inactives read as strong as hits; activity change (mCherry), % (no concentration beside the values); hit rate 0.01% among 89,000; AID 1053133;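 active = mCherry past -33% and 40 or more points under the early reporter, replicates agreeing; inconclusive = past -33% without that gap or agreement; tested in A549 cells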;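 also: scaled between vehicle wells and reference inhibitor wells; 23 nL library stock went into each well; one replicate is shown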
Vaccinia stage Venus – further read-out of Vaccinia stage, marked with its call; activity change (Venus), %; measured here: Venus reporter, other viral stage;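 negative = less Venus signal; first of two replicates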
Active calls of the source: *; ? = inconclusive; / = no result given; & = joins results of further samples. Some of the compounds tested; the hit share may differ from the screen's.

Order of results – Vaccinia stage Venus | Vaccinia stage
> O=C(C1CC1)N1C[C@@H]2[C@H](c3ccccc31)[C@@H](CO)N2C(=O)c1ccccn1
  -6.3 | 0.7
> CC(C)CC#Cc1ccc2c(c1)O[C@H](CN(C)C(=O)CC1CC1)[C@@H](C)CN([C@H](C)CO)S2(=O)=O
  / | ?
> CO[C@H]1CN(C)C(=O)c2ccc(NS(=O)(=O)CC(F)(F)F)cc2OC[C@H](C)N(C(=O)c2ccc3c(c2)OCO3)C[C@@H]1C
  6.6 | 14.6
> C[C@@H]1CN([C@@H](C)CO)C(=O)c2cc(NC(=O)Nc3ccccc3)ccc2O[C@@H]1CN(C)Cc1ccc(-c2ccccc2)cc1
  -21.1 | -33.2
> COc1cccc(-c2ccc3c(c2)O[C@H](CN(C)C(=O)c2ccccc2F)[C@@H](C)CN([C@H](C)CO)S3(=O)=O)c1
  / | ?
> Cc1noc(C)c1S(=O)(=O)N(C)C[C@@H]1Oc2ccc(NC(=O)CCC(F)(F)F)cc2CC(=O)N([C@@H](C)CO)C[C@@H]1C
  7.9 | 14.6
> C[C@@H]1CN([C@@H](C)CO)S(=O)(=O)c2ccc(C#CC3(O)CCCC3)cc2O[C@@H]1CN(C)C(=O)c1cccnc1
  6.1 | 9.9
> CC(=O)NC[C@@H]1[C@@H](c2ccc(-c3ccccc3F)cc2)[C@H](CO)N1C(C)=O
  5.7 | -2.3
> C[C@H](CO)N1C[C@H](C)[C@H](CN(C)C(=O)Nc2ccc(C(F)(F)F)cc2)Oc2ncc(C3=CCCC3)cc2C1=O
  / | ?
> COc1ccc(NC(=O)Nc2cccc3c2O[C@H](CN(C)C(=O)Nc2ccccc2)[C@H](C)CN([C@H](C)CO)C3=O)cc1
  15.5 | 18.0
> COC(=O)c1c(CC[C@@H](CO)NC(=O)N[C@H](Cc2ccccc2)Cn2cc(-c3ccccn3)nn2)oc(C(C)=O)c1C(=O)OC
  4.3 | 4.8
> COC(=O)C[C@H]1C=C[C@@H](NC(=O)c2ccccc2)[C@@H](CO)O1
  2.1 | 0.6
> O=C(C[C@H]1C[C@@H]2c3cc(NC(=O)Nc4ccc(C(F)(F)F)cc4)ccc3O[C@@H]2[C@@H](CO)O1)NCC1CC1
  / | ?
> Cc1noc(C)c1NC(=O)N[C@H]1CC[C@@H](CCNC(=O)C2CCC2)O[C@@H]1CO
  -0.8 | -4.3
> CO[C@@H]1CN(C)C(=O)c2ccc(NC(=O)C3CCCC3)cc2OC[C@@H](C)N(CC2CC2)C[C@H]1C
  3.8 | 7.0
> C[C@@H]1CN([C@H](C)CO)C(=O)c2cc(C#CCc3ccccc3)cnc2O[C@@H]1CN(C)C(=O)Cc1cccnc1
  4.2 | 6.6
> Cc1noc(C)c1S(=O)(=O)N(C)C[C@H]1Oc2c(NC(=O)C3CCCCC3)cccc2C(=O)N([C@H](C)CO)C[C@H]1C
  -12.5 | -14.8
> C[C@H]1CN([C@@H](C)CO)C(=O)CCCn2nncc2CO[C@H]1CN(C)C(=O)CCCN(C)C
  -3.1 | 11.0
> CO[C@H]1CC[C@H]2CCN(C)C(=O)[C@@H](C)[C@@H](OC)CN(C)C(=O)c3cc(C#N)ccc3OC[C@@H]1O2
  2.5 | 10.0
> COc1ccc(NC(=O)Nc2cccc3c2O[C@H](CN(C)C(=O)Nc2ccc(OC)cc2)[C@H](C)CN([C@H](C)CO)C3=O)cc1
  15.6 | 15.7
> O=C(c1cnccn1)N1CC(=O)N2[C@H](CO)[C@H](c3ccc(C#CCc4ccccc4)cc3)[C@@H]2C1
  1.3 | 26.4
> N#Cc1cccc(-c2ccc([C@H]3[C@@H](CO)N4CCCCN(C(=O)Nc5ccc(F)cc5)C[C@H]34)cc2)c1
  / | ?
> CN(C)CC(=O)Nc1ccc2c(c1)[C@@H]1C[C@@H](CC(=O)NCCN3CCCCC3)O[C@@H](CO)[C@@H]1O2
  0.3 | 4.8
> CCCNC(=O)N1CC2(CN(C(=O)c3cnccn3)C2)c2c([nH]c3cc(OC)ccc23)[C@H]1CO
  11.9 | 29.9
> C[C@@H]1CCCCO[C@H](CN(C)C(=O)Nc2ccccc2)[C@H](C)CN([C@H](C)CO)C(=O)c2cc(NS(C)(=O)=O)ccc2O1
  4.4 | 7.2
> CCCNC(=O)N1C[C@@H]2[C@H](c3ccccc31)[C@@H](CO)N2C(=O)CN1CCOCC1
  10.0 | 13.7
> O=C(C[C@@H]1C[C@@H]2c3cc(NC(=O)Cc4ccncc4)ccc3O[C@@H]2[C@@H](CO)O1)NCc1ccc2c(c1)OCO2
  2.5 | -3.1
> CO[C@H]1CC[C@H]2CCN(C)C(=O)C[C@H](c3ccccc3)CN(C)C(=O)c3cccc(C#N)c3OC[C@@H]1O2
  15.6 | 25.5
> O=C(N[C@H]1C[C@@H]2O[C@@H](CO)CC[C@@H]2O[C@@H]1CCc1ccc(-c2cccnc2)cc1)c1cccc(F)c1
  -0.5 | 7.5
> C[C@@H]1CN([C@@H](C)CO)S(=O)(=O)c2ccc(C#CC3(O)CCCC3)cc2O[C@H]1CN(C)C(=O)c1cccnc1
  6.8 | 2.7
> C[C@@H]1CN([C@@H](C)CO)S(=O)(=O)c2ccc(Br)cc2O[C@@H]1CN(C)Cc1ccccc1
  / | ?
> C[C@@H]1CN([C@H](C)CO)S(=O)(=O)c2ccc(C#Cc3ccccc3)cc2O[C@@H]1CN(C)S(=O)(=O)c1cn(C)cn1
  / | ?
> CCNC(=O)[C@H]1[C@H](CO)[C@H]2Cn3c(cccc3=O)[C@@H]1N2CC1CCOCC1
  9.0 | 13.0
> CO[C@@H]1CN(C)C(=O)c2cc(NC(=O)Nc3ccc(Cl)cc3)ccc2OC[C@H](C)NC[C@@H]1C
  -14.7 | -21.8
> C[C@@H]1CCCCO[C@H](CN(C)C)[C@H](C)CN([C@@H](C)CO)C(=O)c2cc(NC(=O)CCCN(C)C)ccc2O1
  2.1 | 10.8
> CCCNC(=O)C[C@@H]1C[C@@H]2c3cc(NC(=O)C4CCC4)ccc3O[C@@H]2[C@@H](CO)O1
  6.5 | 16.7
> C[C@H]1CN([C@@H](C)CO)C(=O)c2cccc(NS(=O)(=O)c3ccc(Cl)cc3)c2O[C@@H]1CN(C)Cc1ccc(-c2ccccc2)cc1
  -22.0 | -28.6
> CC(=O)N1[C@H](CO)[C@@H](c2ccccc2)[C@@H]1CN(C)C(=O)C1CCC1
  22.6 | 22.4
> C/C=C/c1ccc([C@H]2[C@@H](CO)N(C(C)=O)[C@@H]2CN(CCC)C(=O)C2CC2)cc1
  7.2 | 0.1
> O=C(c1cccnc1)N1C[C@H]2[C@@H](c3ccccc31)[C@H](CO)N2C(=O)Nc1ccc(F)cc1
  1.2 | 2.2
> COc1ccc2c3c([nH]c2c1)[C@@H](CO)N(C(=O)CN(C)C)CC31CN(Cc2ccccc2)C1
  -24.0 | -29.2
> C[C@H](CO)N1C[C@H](C)[C@@H](CN(C)S(=O)(=O)c2cn(C)cn2)Oc2ccc(NC(=O)CCCCCC(=O)Nc3ccccc3N)cc2CC1=O
  2.7 | 9.8
> C[C@@H]1CCCCO[C@H](CN(C)C(=O)Cc2ccccc2)[C@H](C)CN([C@@H](C)CO)C(=O)c2cc(NC(=O)Nc3ccccc3)ccc2O1
  -1.6 | -2.3
> O=C(NCC[C@H]1CC[C@H](NS(=O)(=O)c2cccc(F)c2)[C@H](CO)O1)C1CCCC1
  8.3 | -2.0
> COc1ccc(OC(=O)N(C)C[C@H]2OCc3cn(nn3)CCCC(=O)N([C@@H](C)CO)C[C@@H]2C)cc1
  12.7&4.9 | 7.8&-0.3
> C/C=C/c1ccc2c(c1)O[C@@H](CN(C)C(=O)c1cnccn1)[C@H](C)CN([C@@H](C)CO)S2(=O)=O
  2.9 | -4.0
> CCCC#Cc1ccc([C@H]2[C@@H](CO)N3CCCCN(C(=O)NC4CCCC4)C[C@H]23)cc1
  / | ?
> O=C1CNC[C@H]2[C@@H](c3ccc(C4=CCCC4)cc3)[C@H](CO)N12
  0.6 | 7.3
> C[C@@H]1CN([C@@H](C)CO)S(=O)(=O)c2ccc(-c3ccc(C(=O)N(C)C)cc3)cc2O[C@@H]1CN(C)C(=O)C1CCOCC1
  15.6 | 22.8
> Cc1noc(C)c1NC(=O)Nc1cccc2c1O[C@H](CN(C)C(=O)Nc1ccc3c(c1)OCO3)[C@@H](C)CN([C@@H](C)CO)C2=O
  23.5 | 19.9
> C[C@H]1CN([C@@H](C)CO)C(=O)Cc2cc(NC(=O)C3CC3)ccc2O[C@H]1CN(C)C(=O)Nc1ccc(C(F)(F)F)cc1
  6.7 | -2.2
> CC(C)CC#Cc1ccc2c(c1)O[C@@H](CN(C)C(=O)c1cnccn1)[C@H](C)CN([C@@H](C)CO)S2(=O)=O
  2.8 | 19.8
> Cc1cccc(S(=O)(=O)N[C@@H]2CC[C@H](CCn3cc(-c4ccccn4)nn3)O[C@H]2CO)c1
  -26.8 | -26.3
> Cc1noc(C)c1NC(=O)N[C@H]1CC[C@@H](CCNC(=O)C2CCC2)O[C@H]1CO
  -0.9 | -6.7
> C[C@H]1CCCCO[C@@H](CN(C)Cc2ccc(C(=O)O)cc2)[C@@H](C)CN([C@@H](C)CO)C(=O)c2cc(NS(=O)(=O)c3ccc(Cl)cc3)ccc2O1
  16.3 | 32.8
> CCCC#Cc1ccc([C@H]2[C@@H](CO)N3C(=O)CN(C(=O)c4cccnc4)C[C@H]23)cc1
  -15.8 | -25.1
> C[C@@H]1CN([C@@H](C)CO)C(=O)c2cccc(NS(=O)(=O)c3cccs3)c2O[C@H]1CN(C)S(=O)(=O)c1cn(C)cn1
  15.6 | 26.4
> C[C@@H]1CN([C@H](C)CO)C(=O)c2cc(-c3ccc(C#N)cc3)cnc2O[C@H]1CN(C)C(=O)Nc1ccccc1
  -1.7 | 4.7
> CCC(=O)N1CC[C@@H]2[C@@H](CO)Nc3ccc(C#Cc4ccccc4F)cc3[C@@H]21
  10.6 | -3.4
> COc1ccc(S(=O)(=O)N(C)C[C@H]2Oc3c(cccc3N(C)C)C(=O)N([C@H](C)CO)C[C@@H]2C)cc1
  0.8 | 3.4

4 compounds picked at random from the list so far, as already listed:
Order of results – Vaccinia stage Venus | Vaccinia stage
> Cc1cccc(S(=O)(=O)N[C@@H]2CC[C@H](CCn3cc(-c4ccccn4)nn3)O[C@H]2CO)c1
  -26.8 | -26.3
> COc1ccc2c3c([nH]c2c1)[C@@H](CO)N(C(=O)CN(C)C)CC31CN(Cc2ccccc2)C1
  -24.0 | -29.2
> COc1ccc(S(=O)(=O)N(C)C[C@H]2Oc3c(cccc3N(C)C)C(=O)N([C@H](C)CO)C[C@@H]2C)cc1
  0.8 | 3.4
> C[C@@H]1CN([C@@H](C)CO)C(=O)c2cccc(NS(=O)(=O)c3cccs3)c2O[C@H]1CN(C)S(=O)(=O)c1cn(C)cn1
  15.6 | 26.4

(next part)
Order of results – Vaccinia stage Venus | Vaccinia stage
> C[C@H]1CN([C@@H](C)CO)C(=O)Cc2cc(NS(=O)(=O)c3cn(C)cn3)ccc2O[C@@H]1CN(C)S(=O)(=O)c1ccc(Cl)cc1
  2.9 | -1.2
> CCC(=O)N1CCC2(CC1)CN(CC1CCOCC1)[C@H](CO)c1c2c2ccc(OC)cc2n1C
  10.4 | 11.9
> COc1ccc(S(=O)(=O)N(C)C[C@H]2Oc3ccc(NS(=O)(=O)c4c(C)noc4C)cc3C(=O)N([C@@H](C)CO)C[C@@H]2C)cc1
  3.4 | 0.1
> O=C(NCC[C@H]1CC[C@H](NS(=O)(=O)c2ccccc2)[C@H](CO)O1)c1ccc2c(c1)OCO2
  5.2 | -6.1
> O=C(Nc1ccc(F)cc1)N[C@@H]1C=C[C@@H](CC(=O)N2CCCCC2)O[C@H]1CO
  -1.5 | -4.2
> C[C@H]1CN([C@@H](C)CO)C(=O)c2cc(NS(=O)(=O)c3ccc(Cl)cc3)ccc2O[C@@H]1CN(C)Cc1ccc(Cl)c(Cl)c1
  / | ?
> O=C(C[C@@H]1CC[C@@H]2[C@H](COC[C@H](O)CN2C(=O)c2ccc3c(c2)OCO3)O1)NCCN1CCCC1
  10.4 | 15.7
> Cc1ccc(-c2ccc3c(c2)O[C@H](CN(C)C)[C@H](C)CN([C@H](C)CO)S3(=O)=O)cc1
  -22.9 | -10.6
> C[C@H](CO)N1C[C@H](C)[C@@H](CN(C)C(=O)Nc2ccc3c(c2)OCO3)Oc2ccc(NC(=O)CCCN(C)C)cc2C1=O
  13.2 | 11.6
> C[C@@H]1CN([C@@H](C)CO)C(=O)c2cc(NC(=O)Nc3cccc4ccccc34)ccc2O[C@@H]1CN(C)C(=O)NC1CCCCC1
  1.6 | 3.0
> C[C@@H]1CCCCO[C@H](CN(C)C(=O)Nc2cccc3ccccc23)[C@@H](C)CN([C@@H](C)CO)C(=O)c2cc(NC(=O)Nc3ccc(C(F)(F)F)cc3)ccc2O1
  3.1 | 18.5
> CCCNC(=O)N1C[C@@H]2N[C@H](C1)C2c1ccc(-c2ccc(F)cc2)cc1 (stereo partly drawn)
  -26.9 | ?
> C[C@H]1CN([C@@H](C)CO)C(=O)c2cc(NC(=O)Nc3ccccc3)ccc2O[C@@H]1CN(C)Cc1ccc2c(c1)OCO2
  -17.8 | -18.1
> COCC(=O)Nc1ccc2c(c1)[C@H]1C[C@H](CC(=O)NCc3cccc(F)c3)O[C@H](CO)[C@H]1O2
  -0.9 | -0.3
> CO[C@@H]1CN(C)C(=O)c2cc(NS(=O)(=O)c3ccc(C)cc3)ccc2OC[C@H](C)N(Cc2nccs2)C[C@H]1C
  0.8 | 6.2
> CCCNC(=O)C[C@H]1CC[C@@H]2[C@H](COC[C@@H](O)CN2C(=O)Nc2cccc(Cl)c2)O1
  -0.1 | -1.8
> C[C@H]1CN([C@@H](C)CO)C(=O)c2cc(NC(=O)NC3CCCCC3)ccc2O[C@H]1CN(C)Cc1ccc(C(F)(F)F)cc1
  -16.2 | -24.0
> O=C(N[C@@H]1CC[C@H](CCn2cc(-c3cccnc3)nn2)O[C@H]1CO)c1ccccc1F
  -1.1 | -3.0
> CN1C(=O)c2cc(NC(=O)c3cccc(F)c3)ccc2OC[C@H]2O[C@H](CC(=O)NCc3ccccc3Cl)CC[C@@H]21
  -7.4 | -13.5
